MLL AF4-AF9 inh – inhibitors of human MLL-AF4/AF9 interaction; AlphaScreen, biotin-AF4 peptide binding to FLAG-AF9; P42568; inhibition, % at 10 µM; 350,000 tested, 0.47% active;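 active = every replicate reaching a set inhibition limit, whatever the replicate mean, cut at about 25% in these data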;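 note: 0% = plate neutral control median and 100% = total signal loss; the record names both 10 and 1 µM as test concentration; the first replicate is given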
Target sequence (P42568 whole entry, looked up): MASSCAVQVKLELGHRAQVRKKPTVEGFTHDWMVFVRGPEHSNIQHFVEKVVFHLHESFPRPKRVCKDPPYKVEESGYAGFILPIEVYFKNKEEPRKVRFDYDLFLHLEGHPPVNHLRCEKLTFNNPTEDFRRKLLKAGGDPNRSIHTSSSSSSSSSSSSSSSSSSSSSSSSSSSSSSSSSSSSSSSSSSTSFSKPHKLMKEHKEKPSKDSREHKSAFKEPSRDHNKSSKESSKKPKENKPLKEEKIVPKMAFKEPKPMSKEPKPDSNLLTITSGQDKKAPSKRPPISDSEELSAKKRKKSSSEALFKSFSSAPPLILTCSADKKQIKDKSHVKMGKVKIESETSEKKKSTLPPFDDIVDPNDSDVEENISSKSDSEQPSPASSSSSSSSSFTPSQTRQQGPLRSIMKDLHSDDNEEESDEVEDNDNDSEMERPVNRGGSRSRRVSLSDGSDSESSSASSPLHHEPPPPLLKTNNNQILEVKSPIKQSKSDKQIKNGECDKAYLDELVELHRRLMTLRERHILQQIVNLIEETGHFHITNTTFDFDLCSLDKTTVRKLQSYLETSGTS
Vif A3G – HIV-1 Vif–A3G interaction blockers – biochemical, TR-FRET, GST-Vif 1-94, biotin-A3G peptide, dose response retest, primary screen (AID 1117319). TR-FRET GST-Vif / biotin-A3G peptide binding; higher % means a stronger effect; test concentration not given here; strong numbers were not always called active. inhibition, %; hits with a dose series show IC50 in µM. 260,000 tested, 0.57% active;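 active = above the screen mean plus three standard deviations and confirmed in dose response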;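 note: Vif residues 1-94 fused to GST binding biotinylated APOBEC3G peptide 110-148; 0% = full assay without inhibitor and 100% = GST in place of GST-Vif; retest series ran down from 100 µM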
FGF22 binding – shifts melting point of recombinant human FGF22; recombinant FGF22 thermal shift, SYPRO orange fluorescence; percent of sucrose octasulfate shift, DMSO zero; 340,000 tested, 1.5% active; calls only at 9.99 µM; Q9HCT0; AID 651658;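 active = melting point raised past a set limit in the mean and every replicate; three in four hits are not shown here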
Target sequence (Q9HCT0 whole entry, looked up): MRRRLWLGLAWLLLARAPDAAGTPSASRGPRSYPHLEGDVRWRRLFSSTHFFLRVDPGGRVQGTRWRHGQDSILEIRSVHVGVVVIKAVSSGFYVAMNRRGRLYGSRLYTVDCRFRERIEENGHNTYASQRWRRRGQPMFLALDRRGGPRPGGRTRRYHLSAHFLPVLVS
HNF4A DNA FP – change in binding of human HNF4 alpha to DNA; 360,000 tested, 0.3% active; activity change, % at 10 µM; HNF4a-FITC DNA binding, fluorescence polarization, 1 h; P41235; in the data active = activity change above about 30%, passing the limit was not always enough;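 note: controls were the assay level and a saturating level of protein; the project sought stronger binding though the title names inhibitors; some compounds called inactive have numbers as strong as hits; positive values seem to mean higher polarization but the record does not say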
* marks the source's active call; other numbers are inactive results; i = inactive; / = no result given; + = active, no number. Only part of the results is shown (hit frequency here may not be typical).

entry	FGF22 binding	HNF4A DNA FP	MLL AF4-AF9 inh	Vif A3G	mol
1	i	3.1	/	/	Cc1cccc(C)c1NC(=O)C(C1CC1)n1c(=O)c(-c2cc3ccccc3[nH]2)nc2ccccc21 (stereo not given)
2	i	-4.9	/	/	Cc1cccc(C)c1NC(=O)C1(C)CSCC(=O)N1Cc1cccc(C(F)(F)F)c1 (stereo not given)
3	i	1.5	/	/	CCC(C(=O)NC(C)(C)C)n1c(C(c2ccccc2)c2ccccc2)nc2ccccc21 (stereo not given)
4	i	-0.5	/	/	CC(C)c1cc(Cn2c3ccccc3c(=O)n2C(C)Cn2cc(COc3ccccc3)nn2)on1 (stereo not given)
5	i	-2.2	/	/	CCOC(=O)N1CCN(C(=O)C[C@@H]2C[C@@]3(C(=O)OC)CCCCC=C3N(CCc3ccc(OC)c(OC)c3)C2=O)CC1
6	i	1.3	/	/	O=C1Nc2ccccc2-n2nnnc2C1N1CCN(c2ccc(C(F)(F)F)cc2[N+](=O)[O-])CC1 (stereo not given)
7	i	4.8	/	/	CSCc1cc(C(=O)NC2CC2)c(N)s1
8	i	-5.4	/	/	CC(=O)N1CCN(C(C(=O)Nc2c(C)cccc2C)c2cccc(F)c2)CC1 (stereo not given)
9	i	3.3	/	/	CCCCOC(=O)COc1ccc(Cl)cc1Cl
10	i	4.2	/	/	Nc1nc2ccc(Cl)cc2cc1C(=O)NCCc1ccc(Cl)cc1Cl
11	i	-1.6	/	/	O=C(Nc1ccc(F)cc1)C(c1cccc(F)c1)N1CCN(c2ccncc2)CC1 (stereo not given)
12	i	-1.5	/	/	CCOC(=O)CC1(CCc2ccccc2)Oc2ccccc2O1

The last two entries of the part before open the next one:
entry	FGF22 binding	HNF4A DNA FP	MLL AF4-AF9 inh	Vif A3G	mol
11	i	-1.6	/	/	O=C(Nc1ccc(F)cc1)C(c1cccc(F)c1)N1CCN(c2ccncc2)CC1 (stereo not given)
12	i	-1.5	/	/	CCOC(=O)CC1(CCc2ccccc2)Oc2ccccc2O1
13	i	0.1	/	/	COC1=CC(=O)OC(c2cccc(Cl)c2)C1 (stereo not given)
14	i	1.9	/	/	CC(C)NC(=O)C1(C)CN(S(C)(=O)=O)CC(=O)N1CCCN1CCOCC1 (stereo not given)
15	i	-0.7	/	/	COCCCNC(=O)C[C@@H]1C[C@@]2(C(=O)OC)CC(C)(C)CC=C2N(Cc2ccccc2)C1=O
16	i	8.8	/	/	N#Cc1ccc(C(C(=O)Nc2ccc3c(c2)OCCO3)n2c(=O)c(-c3ccco3)nc3ccccc32)cc1 (stereo not given)
17	i	31	/	/	O=C(NCc1ccccc1)C(c1ccc(-c2ccccc2)cc1)n1c(=O)c(-c2ccco2)nc2ccccc21 (stereo not given)
18	i	17	/	/	CCCCCNC(=O)C(c1cc2ccccc2o1)n1c(=O)c(-c2ccco2)nc2ccccc21 (stereo not given)
19	i	-0.5	/	/	COC(=O)C1=CN(c2c(C)cc(C)cc2C)C(N)=C(C#N)C1c1ccccc1 (stereo not given)
20	i	17	/	/	Nc1sc(-c2ccccc2)cc1C(=O)NCCc1c[nH]c2ccccc12
21	i	0.2	/	/	O=C(NCc1ccccc1)C(c1ccccc1F)n1c(=O)c(-c2ccccc2)nc2ccccc21 (stereo not given)
22	i	-1.3	/	/	CC(C)NC(=O)C1(C)CN(S(C)(=O)=O)CC(=O)N1CCc1ccccc1 (stereo not given)
23	i	7.3	/	/	CCc1ccc(C(c2ccc(CC)cc2)C(Cl)Cl)cc1
24	i	-0.3	/	/	CCCCNC(=O)c1nc(C2CCN(S(=O)(=O)c3ccc(S(C)(=O)=O)cc3)CC2)oc1-c1ccccc1
25	i	-1.4	/	/	COC(=O)C1=CN(c2ccc(C)cc2)C(N)=C(C#N)C1c1ccc(OC)cc1 (stereo not given)
26	i	1.8	/	/	COc1ccc(C(=O)NCCNc2nc3cc(C)cc(C)c3cc2C#N)nc1
27	i	-1.0	/	/	CCOC1=C2CN(S(=O)(=O)c3ccc(C)cc3)C(c3cccc(Cl)c3)CC2N(S(=O)(=O)c2ccc(C)cc2)C(c2ccncc2)C1 (stereo not given)
28	i	27	/	/	O=C(NCc1ccccc1)C(c1ccccc1)n1c(=O)c(-c2ccco2)nc2ccccc21 (stereo not given)
29	i	2.2	/	/	CCCCNC(=O)C1C(c2ccc(OC)cc2)=Nc2ccccc2N1C(=O)c1cccnc1 (stereo not given)
30	i	-1.3	/	/	COc1ccc(C(C(=O)NC(C)(C)C)n2c(-c3ccc(C(F)(F)F)cc3)nc3ccccc32)cc1 (stereo not given)
31	i	7.6	/	/	CC(C)(C)NC(=O)C(C1CC1)n1c(=O)c(-c2ccco2)nc2ccccc21 (stereo not given)
32	i	7.6	/	/	CC(C)(C)NC(=O)C(c1cccc2ccccc12)n1c(=O)c(-c2ccccc2)nc2ccccc21 (stereo not given)
33	i	67*	/	/	C#CCNC(=O)c1cc(-c2ccccc2)sc1N
34	i	-0.1	/	/	CC(C)(C)N1C(=O)c2ccccc2NC(=O)C1C(=O)NCCc1ccccc1 (stereo not given)
35	i	-9.9	/	/	O=C1Nc2ccccc2-n2nnnc2C1N1CCc2ccccc2C1 (stereo not given)
36	i	3.0	/	/	COC(=O)C1=CN(c2ccc(C(C)(C)C)cc2)C(N)=C(C#N)C1c1ccc(OC)cc1 (stereo not given)
37	i	-45	/	/	CCc1ccccc1N=Cc1c(C)c(C#N)c2[nH]c3ccccc3n2c1=O
38	i	-9.0	/	/	O=C(Nc1ccc(F)cc1)C(c1cccc(F)c1)N1CCN(Cc2c(F)cccc2Cl)CC1 (stereo not given)
39	i	0.4	/	/	O=C(NC1CCCC1)C1C(c2ccccc2)=Nc2ccccc2N1C(=O)c1ccc(C(F)(F)F)cc1 (stereo not given)
40	i	-0.2	/	/	CCOC(=O)/C=C/c1cccc(C)c1O
41	i	-0.7	/	/	Cc1cc2c(cc1C)-c1nnnn1C(N1CCCCC1)C(=O)N2 (stereo not given)
42	i	-0.3	/	/	Cc1cccc(C)c1NC(=O)C(c1ccnc2ccccc12)N1CCN(CCN(C)C)CC1 (stereo not given)
43	i	-0.6	/	/	CC(C)CNC(=O)C1C(=O)Nc2ccccc2C(=O)N1C1CCCCC1 (stereo not given)
44	i	-1.0	/	/	CCC(C)CN1C(=O)CN(S(C)(=O)=O)CC1(C)C(=O)Nc1c(C)cccc1C (stereo not given)
45	i	-4.0	/	/	COC(=O)C[C@H]1C=C[C@@H](NS(=O)(=O)c2ccc(C)cc2)[C@@H](CO)O1
46	i	34*	/	/	O=C(NC1CCCCC1)C(c1ccccc1F)n1c(=O)c(-c2ccco2)nc2ccccc21 (stereo not given)
47	i	2.1	/	/	O=C1c2c(-c3ccc(Br)cc3)noc2CCN1Cc1cn(C2CCCC2)nn1
48	i	-0.2	/	/	O=C(Nc1ccc(F)cc1)C(CCc1ccccc1)N1CCN(C(=O)c2ccco2)CC1 (stereo not given)

An excerpt from above in order of formula weight, rising:
entry	FGF22 binding	HNF4A DNA FP	MLL AF4-AF9 inh	Vif A3G	mol
13	i	0.1	/	/	COC1=CC(=O)OC(c2cccc(Cl)c2)C1 (stereo not given)
23	i	7.3	/	/	CCc1ccc(C(c2ccc(CC)cc2)C(Cl)Cl)cc1
41	i	-0.7	/	/	Cc1cc2c(cc1C)-c1nnnn1C(N1CCCCC1)C(=O)N2 (stereo not given)
35	i	-9.9	/	/	O=C1Nc2ccccc2-n2nnnc2C1N1CCc2ccccc2C1 (stereo not given)
43	i	-0.6	/	/	CC(C)CNC(=O)C1C(=O)Nc2ccccc2C(=O)N1C1CCCCC1 (stereo not given)
20	i	17	/	/	Nc1sc(-c2ccccc2)cc1C(=O)NCCc1c[nH]c2ccccc12
26	i	1.8	/	/	COc1ccc(C(=O)NCCNc2nc3cc(C)cc(C)c3cc2C#N)nc1
8	i	-5.4	/	/	CC(=O)N1CCN(C(C(=O)Nc2c(C)cccc2C)c2cccc(F)c2)CC1 (stereo not given)
44	i	-1.0	/	/	CCC(C)CN1C(=O)CN(S(C)(=O)=O)CC1(C)C(=O)Nc1c(C)cccc1C (stereo not given)
47	i	2.1	/	/	O=C1c2c(-c3ccc(Br)cc3)noc2CCN1Cc1cn(C2CCCC2)nn1
42	i	-0.3	/	/	Cc1cccc(C)c1NC(=O)C(c1ccnc2ccccc12)N1CCN(CCN(C)C)CC1 (stereo not given)
15	i	-0.7	/	/	COCCCNC(=O)C[C@@H]1C[C@@]2(C(=O)OC)CC(C)(C)CC=C2N(Cc2ccccc2)C1=O
17	i	31	/	/	O=C(NCc1ccccc1)C(c1ccc(-c2ccccc2)cc1)n1c(=O)c(-c2ccco2)nc2ccccc21 (stereo not given)
24	i	-0.3	/	/	CCCCNC(=O)c1nc(C2CCN(S(=O)(=O)c3ccc(S(C)(=O)=O)cc3)CC2)oc1-c1ccccc1

(listing goes on)
entry	FGF22 binding	HNF4A DNA FP	MLL AF4-AF9 inh	Vif A3G	mol
49	i	-4.1	/	/	CCC(C(=O)Nc1c(C)cccc1C)n1c(-c2cnc(C)cn2)nc2ccccc21 (stereo not given)
50	i	46*	/	/	CC(C)(C)NC(=O)C(c1ccc(-c2ccccc2)cc1)n1c(=O)c(-c2ccco2)nc2ccccc21 (stereo not given)
51	i	0.4	/	/	Cc1ccc(S(=O)(=O)N[C@@H](C)CO)cc1
52	i	-3.1	/	/	Cc1c(C2(O)CCCCC2)[nH]c2ccc(C(F)(F)F)cc12
53	i	1.6	/	/	COc1cccc(C(C(=O)NCc2ccccc2)N2CCN(c3cccc(C)c3C)CC2)c1OC (stereo not given)
54	i	5.8	/	/	COc1ccc(C(C(=O)Nc2ccc(F)cc2)N2CCN(C(=O)c3ccco3)CC2)cc1 (stereo not given)
55	i	-4.3	/	/	Cc1c(N)cccc1N
56	i	1.9	/	/	Cc1cccc(C)c1NC(=O)C1(C)CSCC(=O)N1CCC(C)C (stereo not given)
57	i	0.0	/	/	O=C(NCc1ccccc1)C(c1cccc2ccccc12)n1c(=O)c(-c2ccccc2)nc2ccccc21 (stereo not given)
58	i	-5.2	/	/	CC(C)NC(=O)C1(C)CN(S(C)(=O)=O)CC(=O)N1CCCn1ccnc1 (stereo not given)
59	i	-0.3	/	/	CC(C)NC(=O)C1(C)CSCC(=O)N1Cc1cccc(F)c1 (stereo not given)
60	i	15	/	/	CC(C)(C)NC(=O)C(c1ccnc2ccccc12)n1c(=O)c(-c2ccccc2)nc2ccccc21 (stereo not given)
61	i	-6.7	/	/	Cn1cc([C@]2(O)C(=O)Nc3ccc(F)cc32)c2ccccc21
62	+	-5.8	/	/	COC(=O)[C@@]12C[C@@H](CC(=O)NCc3ccccc3)C(=O)N(Cc3cccc4ccccc34)C1=CCC(C)(C)C2
63	i	-0.4	/	/	CC(C)NC(=O)C1(C)CN(S(C)(=O)=O)CC(=O)N1Cc1cccs1 (stereo not given)
64	/	84*	-18	/	CCN(CC)c1ccc2cc(C(=O)c3cccs3)c(=O)oc2c1
65	/	-4.1	4.4	/	O=C(NCc1ccccc1)C1C(c2ccccc2)=Nc2ccccc2N1C(=O)c1ccncc1 (stereo not given)
66	/	0.6	-1.0	/	Cc1ccc(S(=O)(=O)NC(=O)Cn2nnc(-c3ccccc3)c2COc2ccc3ccccc3c2)cc1
67	/	4.7	2.8	/	O=C(Nc1ccc2c(c1)OCCO2)C1C(c2ccccc2)=Nc2ccccc2N1C(=O)c1cccnc1 (stereo not given)
68	/	-14	0.1	/	CCCCCCCCCCCCCCCCCCNc1ccn(C2OC(COP(=O)(O)OCC3OC(n4cc(F)c(=O)[nH]c4=O)CC3O)C(O)C2O)c(=O)n1 (stereo not given)
69	/	-4.0	1.5	/	OCCN1CCN(c2cnc(-c3ccsc3)cn2)CC1
70	/	6.4	-9.9	/	CC(=O)Oc1ccc2c(c1)CCC1C2CCC2(C)C(OC(C)=O)CCC12 (stereo not given)
71	/	1.1	-4.1	/	CCOC(=O)C1=CCN(S(=O)(=O)c2ccc(F)cc2)C1c1cccc(F)c1 (stereo not given)
72	/	1.6	/	31%	COc1ccc(Nc2nnc(-c3ccc(N4CCOCC4)c([N+](=O)[O-])c3)c3ccccc23)cc1
73	/	2.1	/	16%	Cc1cs/c(=N\N=C\c2ccccc2)n1Cc1ccco1
74	/	5.3	/	-1%	C/C(=N\Nc1cc(Cl)nc(C)n1)c1ccc(C)cc1
75	/	2.1	/	-1%	N/C(=N\OC(=O)C1CCCCC1)c1cccc([N+](=O)[O-])c1
76	/	22	/	-90%	COc1cccc2c1C(=N)c1c(O)c3c(c(O)c1C2=O)CC(O)(C(C)=O)CC3OC1CC(N)C(O)C(C)O1 (stereo not given)
77	/	1.4	/	-15%	CC(NC(=O)c1ccc(N(C)C)cc1)C1CC2CCC1C2 (stereo not given)
78	/	-1.4	/	-1%	Cc1ccc(/C=N/N2CCN(c3ccc(Cl)cc3)CC2)o1
79	/	-115	/	9%	Fc1ccc(C2=CC(c3ccc(Br)o3)n3ncnc3N2)cc1 (stereo not given)
80	/	-1.4	/	-9%	COc1cc2c3c(n(C)c(=O)c2cc1OC)-c1cc2c(cc1C3=O)OCO2
81	/	-2.1	/	-1%	CC1(C)CC(=Cc2cc(O)ccc2[N+](=O)[O-])C(=O)c2ccccc21

Screening results deposited in PubChem BioAssay by several laboratories.
